High-throughput results (PubChem BioAssay)
Mtb betalactam – beta-lactam sensitization of Mtb H37Rv; M. tuberculosis H37Rv growth with meropenem, percent inhibition; hits of this screen are not shown here; inhibition, % at 25 µM; hit rate 0.27% among 330,000; AID 434955;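 active = about 74% or more and at least 40 points above the plate without the antibiotic, then above 30% in a dose series; inconclusive = first-round hits that could not be retested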;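 also: growth measured after seven days incubation then overnight dye step; 0% = bacteria only wells and 100% = bacteria with antibiotic; twin plates without the antibiotic show which effects depend on it; some results filed as inactive read as strong as hits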
YopH inh – blocks Yersinia enterocolitica YopH tyrosine phosphatase | inhibition, %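 (about 10 µM by stock and volumes)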 | hit rate 0.16% among 140,000 | fluorescence Ex485/Em525;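 active = inhibition of 50% or more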;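 also: controls were vehicle for no effect and minimum signal wells for full effect; inactives centre near -20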
RecA splice inh – inhibitors of M. tuberculosis RecA intein splicing; AID 2221; inhibition, %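 (about 9 µM by stock and volumes)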; hit rate 0.75% among 290,000; cell-free RecA intein splicing, fluorescence; in the data active = inhibition above about 30%; inconclusive = no clear call, values can overlap the other calls;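 also: 0% = vehicle wells and 100% = reference inhibitor control wells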
Target sequence (P9WHJ3 whole entry, looked up, canonical isoform): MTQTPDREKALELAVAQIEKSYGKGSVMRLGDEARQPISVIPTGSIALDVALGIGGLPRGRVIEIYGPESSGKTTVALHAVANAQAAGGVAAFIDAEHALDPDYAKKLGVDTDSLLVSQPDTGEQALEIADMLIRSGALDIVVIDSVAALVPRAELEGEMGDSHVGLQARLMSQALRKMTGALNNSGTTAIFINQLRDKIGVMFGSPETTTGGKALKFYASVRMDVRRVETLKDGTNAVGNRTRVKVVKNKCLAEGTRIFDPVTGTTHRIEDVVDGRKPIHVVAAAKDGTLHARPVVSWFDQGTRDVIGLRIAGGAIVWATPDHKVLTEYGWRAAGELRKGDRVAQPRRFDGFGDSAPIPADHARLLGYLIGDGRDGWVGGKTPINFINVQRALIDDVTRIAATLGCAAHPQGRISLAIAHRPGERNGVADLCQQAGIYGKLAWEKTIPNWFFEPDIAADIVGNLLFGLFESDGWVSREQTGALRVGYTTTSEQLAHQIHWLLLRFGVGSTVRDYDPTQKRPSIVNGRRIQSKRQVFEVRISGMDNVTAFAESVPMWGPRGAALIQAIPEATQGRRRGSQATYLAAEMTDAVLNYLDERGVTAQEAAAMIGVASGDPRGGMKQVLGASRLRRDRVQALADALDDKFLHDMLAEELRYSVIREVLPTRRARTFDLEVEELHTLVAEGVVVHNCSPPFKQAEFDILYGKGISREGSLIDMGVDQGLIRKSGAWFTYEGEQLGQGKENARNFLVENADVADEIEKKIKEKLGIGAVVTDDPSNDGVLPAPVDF
Arbovirus inh – antivirals against arbovirus infection; arbovirus infection cell-based antiviral screen; inhibition, % at 10 µM; hit rate 0.37% among 200,000; AID 1251;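 active = inhibition from about 30%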;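 also: bluetongue infection of BSR cells; cell survival read as ATP light after 72 h; 0% = infected wells without compound and 100% = uninfected wells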
Mtb H37Rv – M. tuberculosis H37Rv growth inhibitors, H37Rv strain (AID 1626). hit rate 0.95% among 220,000. M. tuberculosis H37Rv growth inhibition; higher % means a stronger effect. one-dose inhibition, % at 10 µM; IC50 in µM for titrated hits;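 active = confirmed in a dose series; inconclusive = inhibition above 80% but not taken into the dose series; inactive = below 80% or under 30% at every dose of the series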;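 also: bacteria incubated seven days before Alamar blue readout; 0% = bacteria only wells and 100% = bacteria with antibiotic wells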
Arbovirus inh repeat – recorded beside Arbovirus inh, whose call it bears; inhibition, %; measured here: 10K subset replicate screen; many hits read low in the repeat;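 first of two repeat runs on a subset; 0% = infected and 100% = uninfected wells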
* hit, by the source's call; ? = inconclusive; / = no result given. An excerpt; rates above refer to the full screens.

SMILES	Mtb betalactam	YopH inh	RecA splice inh	Arbovirus inh	Mtb H37Rv	others
CCN(CCCNC(=O)C1CCC(=O)N1C(C)C)c1cccc(C)c1 (centres undefined)	-7	-14	/	2	7%
COc1ccc(Cc2c(C)nc(N)nc2Cl)cc1	6	-5	/	-10	-4%
O=C(O)CN1C(=O)/C(=C\c2cc(Br)ccc2OCc2ccc(F)cc2)SC1=S	1	/	10	/	/
CC(=O)N=c1scc(-c2ccccc2)n1-c1cccc(O)c1	0	/	0.4	/	/
N#Cc1ccc(-c2ccccc2)nc1Sc1ccc(F)cc1	9	-11	1.9	-17	1%
Cc1ccc(-c2cc(-c3ccco3)c(C#N)c(=O)[nH]2)cc1	-6	/	-33	/	6%
CC(C)(C)N1CC(c2nc3ccccc3n2Cc2ccc(Cl)cc2)CC1=O (centres undefined)	-3	9	5.5	-25	5%
CCC(=O)Nc1cccc(NC(=O)COc2ccc(OC)cc2)c1	10	-2	-0.2	-6	-1%
CCC(NS(=O)(=O)c1cnn(CC)c1)c1ccccc1 (centres undefined)	0	/	-3.4	12	5%
Cc1noc(/C=C/c2nn(C)cc2Cl)c1[N+](=O)[O-]	7	/	4.5	/	17%
CC(C)c1ccc(NC(=O)CNCC(c2ccccc2)N(C)C)cc1 (centres undefined)	-3	/	-1.5	/	-10%
O=S1(=O)N=C(Oc2cccc3ccccc23)c2ccccc21	-1	-35	0.6	-10	-2%
O=C(O)CCC(=O)N1CCc2cc(S(=O)(=O)NC3CCCC3)ccc21	-10	-43	-1.2	-2	-6%
Cc1nc(N2CCN(C(=O)c3ccco3)CC2)nc2c1C(=O)CCC2	-1	/	0.5	/	/
CCCN(Cc1cc2ccccc2[nH]c1=O)C(=O)c1cccc([N+](=O)[O-])c1	3	/	-1.1	/	0%
Cc1noc(C)c1C(=O)Nc1ccccn1	-12	-32	2.0	9	-2%
Cc1c(C(=O)NCC(C)C)sc2nc(-c3ccc(F)cc3)cn12	3	-19	0.8	5	1%	Arbovirus inh repeat=-5
CC1(C)CC(=NNC(=O)c2n[nH]c3c2CCC3)CC(C)(C)N1	0	/	-0.5	-1	-13%
Cc1ccc(C(=O)NCC(=O)OCC(=O)Nc2ccccc2C#N)s1	-2	/	-2.8	3	-6%
COc1ccc(CC(=O)NC(=S)Nc2ccc(S(=O)(=O)NC(C)(C)C)cc2)cc1	-11	-28	5.7	7	2%
CCOc1ccc(S(=O)(=O)Nc2cc(F)ccc2F)c2cccnc12	4	/	-2.8	/	/
CC(C)(C)NC(=O)NC(=O)COC(=O)C1CC(=O)N(Cc2ccccc2)C1 (centres undefined)	2	-5	0.0	3	4%
O=C(COC(=O)Cc1ccc(S(=O)(=O)N2CCOCC2)s1)NCc1ccccc1	-15	-30	-0.1	-3	-10%
Cc1ccc(CNS(=O)(=O)c2ccc(CN3C(=O)c4cccnc4C3=O)cc2)o1	5	/	-1.4	/	/
Cc1ccc(C2/C(=C(/O)c3ccc(Cl)cc3)C(=O)C(=O)N2CC2CCCO2)o1 (centres undefined)	6	-41	-0.9	-1	5%	Arbovirus inh repeat=0
Remaining list, next part.
SMILES	Mtb betalactam	YopH inh	RecA splice inh	Arbovirus inh	Mtb H37Rv	others
CCOC(=O)c1sc(C)c(C(N)=O)c1NC1=NCCCCC1	-17	-44	-4.7	-3	2%
O=C(N/N=C\c1ccc(O)c([N+](=O)[O-])c1)C1COc2ccccc2O1 (centres undefined)	1	/	-2.5	/	-4%
CCOC(=O)c1nc2c(=O)n(C)c(=O)n(C)c2n(C)c1=O	-4	/	-5.5	/	/
CCS(=O)(=O)N1Cc2ccccc2CC1C(=O)Nc1ccccc1OC (centres undefined)	-6	/	-6.2	/	2%
COc1cc(C2NC(C(=O)O)CS2)ccc1OCc1ccccc1C#N (centres undefined)	/	-25	/	1	-1%
COC(=O)Nc1ccc(OCC(=O)N2CCOCC2)cc1	7	-29	11	5	-3%
COc1cccc(CN(Cc2ccccc2F)S(=O)(=O)c2ccc(S(=O)(=O)NCc3ccccc3)cc2)c1	-8	-17	-2.8	-16	8%
CCOC(=O)N1CCN(C(=O)COc2ccc(Cl)cc2)CC1	10	-5	-0.8	10	4%
O=C(NCCN1CCOCC1)c1ccc2c(c1)ncn2C1CCCCC1	0	-42	0.4	-3	-12%
COC(=O)c1cccc(-c2ccc(C(c3c(C)[nH][nH]c3=O)c3c(C)[nH][nH]c3=O)o2)c1	-1	/	100*	-10	8%
CCc1nnc(NS(=O)(=O)c2ccc(NC(=S)NC(=O)/C=C/c3ccccc3)cc2)s1	-4	-26	0.5	2	-8%
Cc1ccc(S(=O)(=O)NCC(C)NS(C)(=O)=O)cc1 (centres undefined)	3	8	1.3	5	-5%
CC(=O)n1nc(-c2ccc(Cl)cc2)nc1NCc1ccco1	5	-11	/	-1	-2%
Cc1ccc(/C=C/c2nc3ccccc3s2)s1	46	7	-0.7	9	8%
CC(C)C[C@@H](CO)N1CCN(CCCc2ccccc2)CCC1=O	-6	/	2.7	/	/
O=C(CN1C(=O)c2ccccc2S1(=O)=O)N1CCOCC1	-2	-14	-0.1	-9	-15%
O=C1C(Cc2cccc([N+](=O)[O-])c2)S/C(=N/N=C/c2ccco2)N1c1ccccc1 (centres undefined)	1	-36	0.3	1	-6%
O=c1c2c3c(sc2nc2n1CCCCC2)CCCC3	28	-32	-1.3	-1	-3%	Arbovirus inh repeat=-4
Cc1cc(C)n(C(=O)CNC(=O)Cc2ccccc2)n1	-4	-39	1.3	5	3%
Cc1cccn2c(=O)c3c(nc12)N1CCCCCC1C1(C3)C(=O)N(C)C(=O)N(C)C1=O (centres undefined)	11	/	0.7	/	8%
COc1ccc(-n2cnc3cc(C(=O)NC4CCCC4)ccc32)cc1	20	/	/	0	-1%
O=C(COc1ccccc1)N1CCN(CC(O)COc2ccccc2)CC1 (centres undefined)	-6	-40	1.2	12	-1%
Cc1ccsc1C(=O)N1CCCC(CCC(=O)NCc2ccc(F)c(F)c2)C1 (centres undefined)	2	/	-0.6	0	-2%
COc1cccc(CNC(=O)c2n[nH]c3ccccc23)c1	-14	/	1.1	-9	1%
O=c1[nH]c(=O)n(-c2ccc(Cl)cc2)c(O)c1C=Nc1ccc(S(=O)(=O)Nc2nccs2)cc1	98	-18	1.0	-5	?
Further compounds.
SMILES	Mtb betalactam	YopH inh	RecA splice inh	Arbovirus inh	Mtb H37Rv	others
Cc1ccccc1C(=O)N1CCc2ccccc2C1	6	2	/	9	7%
CCC(C)NC(=O)C1c2ccccc2C(=O)N1Cc1ccccc1 (centres undefined)	0	/	-0.8	/	/
Cc1ccc(C(=O)C(C)OC(=O)c2cc3cc([N+](=O)[O-])ccc3oc2=O)cc1 (centres undefined)	10	-7	3.0	3	-4%
CCCCc1[nH]c(=O)c(C#N)c2c1CCCC2	-13	6	-1.5	2	-11%
COc1ccc(NS(=O)(=O)c2cn(C)cn2)cc1Cl	1	/	-1.2	/	/
CCCCn1c(O)c(N=NC(=O)c2ccncc2)c2cc(Br)ccc21	61	-18	2.6	-14	40%
CCOc1ccc(CCNC(=O)c2[nH]c(C)c(C(C)=O)c2C)cc1OCC	9	/	/	-1	3%
COc1ccccc1CNC(=O)C(=O)c1cn(CC(=O)N2CCOCC2)c2ccccc12	-5	/	-1.3	/	/
C[C@]12C(=O)N(c3ccc(Cl)cc3)C(=O)N1[C@@H]1c3ccccc3OC[C@@H]1[C@H]2c1ccccc1	10	/	4.9	/	4%
CCCCCCOC(=O)C(C#N)c1nc2ccccc2nc1N1CCN(CC)CC1 (centres undefined)	94	-26	1.3	-10	6%
Cc1cccc(Nc2nnc(SC/C(O)=C(\C#N)c3nc4ccccc4[nH]3)s2)c1C	80	-15	-3.2	29	8%
CCCN1C2CCCC1CC(NC(=O)c1ccccc1OC)C2 (centres undefined)	0	/	-8.2	/	/
COc1ccc(C(C)=O)cc1COC(=O)CCNS(=O)(=O)c1ccc(C(C)=O)cc1	10	/	0.2	/	/
COc1ccccc1-c1cc(-c2cc(Cl)ccc2O)n[nH]1	-6	-43	-1.9	2	0%
O=C(CSc1nnc(-c2ccccc2Br)o1)N1CCOCC1	1	/	1.2	/	/
COc1cccc(CN2CC(C(=O)NCCc3ccc(C)s3)CCC2=O)c1 (centres undefined)	-5	/	-0.4	/	/
Cc1nnc(SCC(=O)NC2CCCC2)n1CCc1ccccc1	2	/	-0.6	/	/
Cc1cc(C)c(C(=O)COC(=O)C2CC3CCCC(C2)C3=O)c(C)c1 (centres undefined)	31	/	-1.0	/	/
CN(C)c1ccc2nsnc2c1[N+](=O)[O-]	-6	/	32*	/	-10%
COc1ccc(NC(=O)Nc2nnc(C(C)C)s2)cc1	-7	-42	-0.2	17	-3%
Cc1ccc(S(=O)(=O)N2CCN(CC(=O)NC3CCCc4ccccc43)CC2)c(C)c1 (centres undefined)	-30	-1	8.2	-37	-2%
Cn1c(C(=O)N(Cc2ccccc2)Cc2cccs2)cc2sccc21	-3	-32	14	4	9%
CC1=CN2C(=N)/C(=C/c3ccc(C)o3)C(=O)N=C2S1	-3	-33	-0.3	2	-5%
COc1ccc(C/C(C)=N/NC(=O)c2ccncc2)cc1	98	-29	-1.8	4	?
CCCCOC(=O)Nc1ccc(S(=O)(=O)Nc2nccs2)cc1	-2	/	1.7	/	-2%
Next part.
SMILES	Mtb betalactam	YopH inh	RecA splice inh	Arbovirus inh	Mtb H37Rv	others
COc1ccc(S(=O)(=O)NCC2CCCN(C(=O)C=C(C)C)C2)cc1 (centres undefined)	2	/	-0.2	4	-5%
Nc1c(C(=O)NC2CCCC2)c2nc3ccccc3nc2n1/N=C/c1cccnc1	29	/	-4.4	/	/
CC(C)Cc1ccc(CN2CCCC(NC(=O)c3ccnn3C)C2)cc1 (centres undefined)	6	/	0.4	/	/
O=C(CC(C(=O)O)N1CCOCC1)Nc1ccc(Cl)cc1 (centres undefined)	-16	7	-0.3	6	-10%
C[C@H]1C=C(C(=O)NCc2nc3ccccc3[nH]2)O[C@@H](OCc2ccc(CO)cc2)C1	-5	/	-1.2	/	-23%
COC(=O)C(Cc1ccc(N(CCCl)CCCl)cc1)N=Cc1ccccc1O (centres undefined)	3	/	1.7	/	/
O=C(CSc1nc(C2CC2)nc2ccccc12)Nc1ccccc1N1CCOCC1	0	/	0.8	4	-8%
O=C(CSc1nnc(NC(=O)c2c(F)cccc2F)s1)NCc1ccc(F)cc1	-9	/	2.9	/	/
CN(C)c1ccc(/C=N/NC(=O)c2cc(=O)[nH]c3ccccc23)cc1	0	/	2.5	/	-5%
COc1ccc(/C=N/NC(=O)c2ccc(NC(=O)C3CCCCC3)cc2)cc1O	0	/	-0.1	/	/
CCOCCOc1nc2c(c(=O)n(C)c(=O)n2C)n1Cc1ccc(C)cc1	-1	-3	0.6	1	-2%	Arbovirus inh repeat=4
C[n+]1ccccc1Nc1cc([N+](=O)[O-])ccc1N	-4	/	2.0	/	/

Looked up by compound from the list above:
SMILES	Mtb betalactam	YopH inh	RecA splice inh	Arbovirus inh	Mtb H37Rv	others
CC(C)Cc1ccc(CN2CCCC(NC(=O)c3ccnn3C)C2)cc1 (centres undefined)	6	/	0.4	/	/
CN(C)c1ccc(/C=N/NC(=O)c2cc(=O)[nH]c3ccccc23)cc1	0	/	2.5	/	-5%

A draw from above in order of heavy-atom count, ascending:
SMILES	Mtb betalactam	YopH inh	RecA splice inh	Arbovirus inh	Mtb H37Rv	others
C[n+]1ccccc1Nc1cc([N+](=O)[O-])ccc1N	-4	/	2.0	/	/
CC1=CN2C(=N)/C(=C/c3ccc(C)o3)C(=O)N=C2S1	-3	-33	-0.3	2	-5%
COc1ccc(NC(=O)Nc2nnc(C(C)C)s2)cc1	-7	-42	-0.2	17	-3%
O=C(CC(C(=O)O)N1CCOCC1)Nc1ccc(Cl)cc1 (centres undefined)	-16	7	-0.3	6	-10%
CCCCOC(=O)Nc1ccc(S(=O)(=O)Nc2nccs2)cc1	-2	/	1.7	/	-2%
Cn1c(C(=O)N(Cc2ccccc2)Cc2cccs2)cc2sccc21	-3	-32	14	4	9%
CC(C)Cc1ccc(CN2CCCC(NC(=O)c3ccnn3C)C2)cc1 (centres undefined)	6	/	0.4	/	/
CCOCCOc1nc2c(c(=O)n(C)c(=O)n2C)n1Cc1ccc(C)cc1	-1	-3	0.6	1	-2%	Arbovirus inh repeat=4
COC(=O)C(Cc1ccc(N(CCCl)CCCl)cc1)N=Cc1ccccc1O (centres undefined)	3	/	1.7	/	/
O=C(CSc1nnc(NC(=O)c2c(F)cccc2F)s1)NCc1ccc(F)cc1	-9	/	2.9	/	/
O=C(CSc1nc(C2CC2)nc2ccccc12)Nc1ccccc1N1CCOCC1	0	/	0.8	4	-8%
Cc1ccc(S(=O)(=O)N2CCN(CC(=O)NC3CCCc4ccccc43)CC2)c(C)c1 (centres undefined)	-30	-1	8.2	-37	-2%
